High-throughput results as filed in PubChem.
RE007 growth inh: less growth of the S. pombe RE007 Vpr strain; 360,000 tested, 0.21% active; Potency, µM (highest dose often 92.2 µM), for inactives: top-dose activity change, negative = less growth; S. pombe RE007 Vpr strain, BacTiter-Glo ATP luminescence, 24 h; control for the full effect not named in the record; active = well fitted falling curve with a large enough effect; inconclusive = small, poorly fitted or top-dose-only effect; inactive = no such curve, though single readings can be large or run the other way;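 also: % is scaled to controls: 0 for no effect and ±100 for the full control effect; nearly all actives have a fitted effect of over 50% in size; the assay follows cell death caused by Vpr and the record does not say whether a fall means rescue or toxicity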
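Fission yeast strain RE007, carrying one chromosomally integrated HIV-1 vpr copy, was seeded at OD 0.01 in PMG+AL medium with 23 nL pinned compound. After 24 h at 30 °C and 99% humidity, viability was read by BacTiter-Glo luminescence.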
2A StopGo: lowers the luciferase signal of an FMDV 2A StopGo reporter | human cells with a luciferase reporter of 2A StopGo recoding; control for the full effect not named in the record | Potency, µM (doses to about 57.9 µM), inactives show top-dose signal change, negative = less light | 410,000 tested, 1.2% active | AID 1159524; active = well fitted falling curve with a large enough effect; inconclusive = small, poorly fitted or top-dose-only effect; inactive = no such curve, though single readings can be large or run the other way; tested in HEK293T cells; also: % is scaled to controls: 0 for no effect and ±100 for the full control effect; nearly all actives have a fitted effect of over 45% in size; luciferase light after 4 h
Cruzain Triton: blocks cruzain activity in presence of Triton detergent. P25779. purified cruzain, Z-FR-AMC fluorescence, 0.01% Triton. Potency, µM, inactives show max response, negative = inhibition, most hits filed as inhibitors. 200,000 tested, 0.43% active;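 also: plate controls were neutral wells for no effect and buffer without enzyme for full effect; nearly all actives have a fitted effect of over 40% in size; top concentration of the series not given in the record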
Target sequence (P25779 123-467 limits assumed): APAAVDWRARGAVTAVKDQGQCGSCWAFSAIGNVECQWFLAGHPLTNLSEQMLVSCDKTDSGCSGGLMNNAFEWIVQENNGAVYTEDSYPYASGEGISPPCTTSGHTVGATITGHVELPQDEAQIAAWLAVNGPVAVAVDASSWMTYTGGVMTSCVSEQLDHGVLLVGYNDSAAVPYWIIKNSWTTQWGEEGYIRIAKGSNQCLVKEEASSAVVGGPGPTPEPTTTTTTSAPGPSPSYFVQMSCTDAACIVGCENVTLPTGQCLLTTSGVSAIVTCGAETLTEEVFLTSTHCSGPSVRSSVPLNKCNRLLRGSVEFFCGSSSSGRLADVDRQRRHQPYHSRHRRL
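Purified cruzain (1.5 nM final) was preincubated with compounds for 15 min at room temperature in 100 mM sodium acetate pH 5.5, 5 mM DTT, 0.01% Triton X-100. Reaction started with 2 uM Z-FR-AMC; AMC fluorescence change over 60 s gave activity.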
SARS PLP yeast: inhibitors of SARS-CoV papain-like protease in yeast; S. cerevisiae expressing SARS-CoV PLpro, growth rescue; control for the full effect not named in the record; Potency, µM (highest dose often 32.9 µM), inactives show at the top dose activity, positive = growth rescue; 330,000 tested, 0.19% active; AID 485353; active means well fitted rising curve with a large enough effect; inconclusive means small, poorly fitted or top-dose-only effect; inactive means no such curve, though single readings can be large or run the other way; also: 0% is about no effect; nearly all actives have a fitted effect of over 55% in size; growth read by luminescence after 48 h
Marburg entry inh: blocks Marburg virus binding to or entry into cells; Potency, µM (doses to about 37.8 µM), for the others: top-dose activity change, negative = inhibition, usual class: inhibitors; Marburg virus pseudotyped entry inhibition, cell reporter; control for the full effect not named in the record; about a third of the inactives were read at about 46 µM; AID 540276; 300,000 tested, 1.8% active; active = well fitted inhibition curve with a large enough effect; inconclusive = small, poorly fitted or top-dose-only effect, or effect the other way; inactive = flat fitted curve, though single readings scatter; tested in HEK293 cells; about a fifth of its hits are not listed in these tables; also: % is scaled to controls: 0 for no effect and ±100 for the full control effect; luciferase read-out
LASV entry inh: inhibitors of Lassa virus binding or cell entry | Lassa virus pseudotype entry inhibition, cell reporter; control for the full effect not named in the record | Potency, µM (titrated, usually from 37.9 µM), for inactives: at the top dose activity change, negative = inhibition, usual class: inhibitors | 300,000 tested, 1.2% active | AID 540256; active means well fitted inhibition curve with a large enough effect; inconclusive means small, poorly fitted or top-dose-only effect, or effect the other way; inactive means flat fitted curve, though single readings scatter; tested in HEK293 cells; also: % is scaled to controls: 0 for no effect and ±100 for the full control effect; nearly all actives have a fitted effect of over 50% in size; luciferase read-out
NS1 inh: blocks influenza NS1 protein function | AID 2326 | 270,000 tested, 0.4% active | Potency, µM (series often up to 46.1 µM), for inactives: at the highest dose activity, positive = more growth | S. cerevisiae slowed by influenza A NS1, growth recovery by OD600; active means well fitted rising curve with a large enough effect; inconclusive means small, poorly fitted or top-dose-only effect; inactive means no such curve, though single readings can be large or run the other way; also: nearly all actives have a fitted effect of over 50% in size
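Growth recovery, yeast-based: influenza A NS1 expressed in S. cerevisiae causes slow growth, and suppressors are detected by OD600. The parent strain without NS1 is used as positive control.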
Cruzain noTriton: inhibitors of Trypanosoma cruzi cruzain without detergent; 200,000 tested, 2.3% active; AID 1476; Potency, µM, inactives show max response, negative = inhibition, most hits filed as inhibitors; purified cruzain, Z-FR-AMC fluorescence, no detergent;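 also: plate controls were enzyme without inhibitor for no effect and buffer without enzyme for full effect; nearly all actives have a fitted effect of over 40% in size; top concentration of the series not given in the record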
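Detergent-free condition (0.00005% Triton X-100) in acetate buffer pH 5.5 with DTT. 1.5 nM enzyme and compound were pre-mixed 15 min, then 2 uM Z-FR-AMC substrate added; reaction progress from fluorescence change between first and third reads (60 s).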
The depositor's hits bear a star; ? = inconclusive; · = not tested or not shown; [ ] = another dose, or the depositor's remark. Unless noted, calls follow the shape of the dose curve; as a rule, active = well fitted curve in the direction sought with a large enough effect; inconclusive = small, poorly fitted or top-dose-only effect, or another doubt; inactive = no such curve, though single readings can be large; an effect the other way counts as inactive or inconclusive. Potency is read from the fitted curve at half-maximal effect.

SMILES | RE007 growth inh | 2A StopGo | Cruzain Triton | SARS PLP yeast | Marburg entry inh | LASV entry inh | NS1 inh | Cruzain noTriton
C=CCn1c(COc2ccc(F)cc2)nnc1SCC(=O)N1CC(=O)Nc2ccccc21 | 9% | -13% | -1.0% | 3% | 8% | 15% | -8% | -4%
CCC(O)C1CCN(C(=O)c2cc(COc3ccc4ncccc4c3)on2)CC1 (stereo not drawn) | 6% | ? | · | 0% | ? | ? | 3% | ·
Cc1noc(C)c1CN1C(=O)c2ccccc2C1=O | 8% | 32% | · | 4% | · | · | 6% | ·
COCCn1c(SCC(=O)Nc2ccc3c(c2)CCC3)nc2ccccc2c1=O | -3% | 17% | -0.5% | 7% | 2% | -4% | 4% | 8%
O=C(COC(=O)c1cc(Cl)ccc1Cl)Nc1ccc2[nH]c(=O)[nH]c2c1 | 4% | -17% | · | 9% | -22%[46.1 µM] | -20% | · | ·
COc1cc(C2(O)CCCCC2C)cc(OC)c1OC (stereo not drawn) | -24% | -13% | -0.5% | -2% | 23% | 7% | -24% | 8%
Cc1cccc(C(=O)OCC(=O)NC(C)CCc2ccccc2)c1 (stereo not drawn) | 5% | -8% | · | -5% | 18% | ? | · | ·
COc1ccc(CN2CCNC(=O)C2CC(=O)N(C)CCC2CCOCC2)cc1OC (stereo not drawn) | -3% | -1% | · | -8% | · | · | 11% | ·
Cc1cc(NC(=O)CCC(=O)N(C2CC2)C(C(=O)NC(C)(C)C)c2ccccc2Cl)no1 (stereo not drawn) | -9% | -5% | · | -1% | -9%[46.1 µM] | -5% | -6% | ·
COc1ccccc1C1=NOC(Cn2c(NCC3CCCO3)nc3c2c(=O)n(C)c(=O)n3C)C1 (stereo not drawn) | -1% | -22% | · | 0% | 4% | -27% | -7% | ·
COc1cc(Br)ccc1C1CC(=O)C(C)C(c2ccc(Br)cc2OC)N1 (stereo not drawn) | -8% | -24% | · | -4% | · | · | -3% | ·
CN(C)c1nc(-c2ccccn2)nnc1-c1ccccc1 | ? | -2% | 0.9% | -34% | ? | ? | -37% | 0%
COC(=O)CSc1cc([N+](=O)[O-])ccc1NC(=O)OC | 9% | 1% | · | 1% | 4%[46.1 µM] | -6% | · | ·
O=c1c2ccc([N+](=O)[O-])cc2ncn1CCOc1cccc(Br)c1 | 5% | -20% | · | 4% | -21%[46.1 µM] | -6%[46.1 µM] | · | ·
CC(C)(C)c1cc(C(=O)NNC(=O)Nc2cccc(Cl)c2)n(Cc2ccccc2)n1 | 0% | 8% | · | -1% | ? | -24%[46.1 µM] | 0% | ·
CCOc1ccc2nc(NC(=O)c3cccn(Cc4ccccc4C)c3=O)sc2c1 | · | -30% | 0.1% | · | · | -11%[46.1 µM] | · | -1%
O=c1c2ccccc2nc(SCc2ccc(F)cc2Cl)n1CCCN1CCOCC1 | 9% | -13% | · | 0% | · | · | -9% | ·
CSc1ccccc1OC1CCN(Cc2ccccc2)CC1 | -25% | -29% | -2.7% | -10% | ? | ? | 7% | -5%
CCNC(=O)CC1C(=O)N(c2ccc(C)cc2)C(=O)N1Cc1ccc(C)cc1 (stereo not drawn) | · | 4% | 0.5% | · | -20%[46.1 µM] | -2%[46.1 µM] | · | -4%
Cc1ccc2cc(CN(CC3CCCO3)C(=O)Nc3ccccc3F)c3nnnn3c2c1 (stereo not drawn) | -12% | 33%[activator] | · | 1% | -2%[46.1 µM] | 6% | · | ·
Cc1cc(=O)n2c(C(=O)Nc3ccc(F)c(Cl)c3)c(C(=O)Nc3cccc(C)c3C)sc2n1 | · | -16% | -3.0% | · | -2%[46.1 µM] | ? | · | -8%
CC1CCc2nc3ccc(S(=O)(=O)N4CCC(C(=O)NC5CCCC5)CC4)cc3c(C(=O)O)c2C1 (stereo not drawn) | -11% | -15% | -1.3% | 5% | · | · | 14% | 10%
OC(CNCCc1ccccc1)COc1ccc(OCC(O)CNCCc2ccccc2)cc1 (stereo not drawn) | -6% | -25% | · | 1% | 3.2µM* | ? | -4% | ·
Cc1cc(C)nc(N2CCCC(C(=O)Nc3nnc(C(C)C)s3)C2)n1 (stereo not drawn) | · | · | 3.6% | -12% | · | · | 1% | 3%
Cn1ncc(Cl)c1C(=O)NC(=S)Nc1sc2c(c1C#N)CCCCC2 | -18% | -1% | -7.8% | 5% | 17% | 21% | ? | ?
CCn1cc(S(=O)(=O)c2ccc(OC)cc2)c(=O)c2cc(OC)ccc21 | 0% | 10% | · | 3% | -2%[46.1 µM] | -18%[46.1 µM] | 13% | ·
O=C(O)c1ccccc1C(=O)N1CCN(C(=O)c2ccccc2Cl)CC1 | 1% | 8% | · | 2% | -10%[46.1 µM] | -7% | · | ·
Cc1ccc(NC2CCCN(C(=O)c3ccoc3)C2)cc1C (stereo not drawn) | 1% | 0% | · | 0% | · | · | 0% | ·
Cc1ccc(S(=O)(=O)Cc2nc(-c3ccc(C(=O)NCc4ccccc4)cc3)oc2C)cc1 | · | -9% | 0.0% | · | · | -14%[46.1 µM] | · | -2%
CC(CC(=O)Nc1cccc(F)c1)S(=O)(=O)c1ccc2c(c1)NC(=O)CO2 (stereo not drawn) | 2% | -15% | · | 2% | · | · | -1% | ·
O=C(NC1CCCN(Cc2ccc(Cl)cc2)C1)c1ccccc1C(F)(F)F (stereo not drawn) | 6% | 2% | · | 1% | -24%[46.1 µM] | -4%[46.1 µM] | 10% | ·
CC(=O)c1ccc(NC(=O)CCS(=O)(=O)c2ccc3c(c2)n(C)c(=O)c(=O)n3C)cc1 | 3% | -9% | · | 8% | · | · | ? | ·
Cc1cccc2sc(N(CCCN(C)C)C(=O)c3nc4ccccc4s3)nc12 | -3% | -25% | -14% | -6% | ? | -10% | -1% | -9%
CCCCOC(=O)n1c(SCC(=O)N(C)C)nc2ccccc21 | 1% | 18% | -1.9% | 18% | 11% | 43%[14.3 µM] | -48% | ?
CSc1sc(C(=O)NCC2CC2)c2c1S(=O)(=O)N(C)c1ccccc1-2 | 1% | 1% | · | 0% | 2%[46.1 µM] | 7%[46.1 µM] | 9% | ·
Cc1ccc(NC(=S)NC2CCSc3ccccc32)cc1 (stereo not drawn) | 9% | 26% | · | 28% | -15%[46.1 µM] | ? | 1.4µM* | ·
O=C(Nc1nccs1)C1CC(=O)N(c2ccc(Cl)cc2)C1 (stereo not drawn) | 12% | 2% | · | 0% | -14%[46.1 µM] | 15%[46.1 µM] | · | ·
O=C(/C=C/c1ccccc1)Oc1ccccc1C(=S)N1CCOCC1 | -8% | -10% | · | 0% | · | · | -7% | ·
CCCCC12CN3CC(C)(CN(C1)C3c1ccc(O)c(OC)c1)C2=O (stereo not drawn) | · | -2% | -0.6% | · | 17%[46.1 µM] | ? | · | 7%
Cc1ccc(OCC(O)CNCc2ccc(F)cc2)cc1 (stereo not drawn) | -3% | -2% | · | -2% | ? | -5%[46.1 µM] | ? | ·
COc1ccc(N2CC(NC(=O)C3CCCCC3)CC2=O)cc1 (stereo not drawn) | · | -17% | -2.6% | · | · | -20%[46.1 µM] | · | -8%
C=CCc1cc(C)ccc1OCCn1ccnc1 | 8% | 2% | 11% | 3% | 7%[46.1 µM] | -1% | -63% | 6%
O=C(CCN1C(=O)C2C3C=CC(C3)C2C1=O)NCc1cccnc1 (stereo not drawn) | 3% | -13% | 0.9% | 1% | -3%[46.1 µM] | 1% | -2% | -14%
O=C(OC1CCOC1=O)c1cc(Cl)ccc1[N+](=O)[O-] (stereo not drawn) | -10% | 3% | · | 1% | -15%[46.1 µM] | -2%[46.1 µM] | -1% | ·
CC[C@@H](C)[C@H](NC(=O)Cc1c(C)c2cc3c(C)c(C)oc3c(C)c2oc1=O)C(=O)O | -6% | -17% | · | 1% | · | · | 10% | ·
CC(C)OCCCNC(=O)c1sc(=S)n(C)c1N | -12% | 11% | -5.4% | 1% | 1% | 11% | -126% | 4%
COc1ccc(C(=O)N=C2SC3CS(=O)(=O)CC3N2c2ccc(C(C)=O)cc2)cc1 (stereo not drawn) | -1% | 0% | · | -5% | · | · | 7% | ·
COc1cccc(Nc2c3c(nc4nncn24)CCC3)c1 | · | 4% | -3.0% | · | -23%[46.1 µM] | -12%[46.1 µM] | · | -6%
Cc1ccc(-c2nnc(N3CCN(S(C)(=O)=O)CC3)c3ccccc23)cc1 | 0% | ? | -5.0% | -2% | -6% | -11% | -13% | ?
COc1ccccc1/C=C/c1onc(C)c1S(=O)(=O)N1CCC(C(=O)N2CCC(C)CC2)CC1 | · | -14% | 1.1% | · | · | 15%[46.1 µM] | · | -1%
COc1cccc(OC)c1C(=O)NC(=S)NCc1ccco1 | 2% | -3% | · | 1% | 4%[46.1 µM] | 14% | · | ·
COc1ccccc1NC(=O)C(=O)NNC(=O)c1ccco1 | 17% | 0% | 0.1% | -4% | -12% | -10% | -6% | 0%
Cc1nc2ccccn2c1-c1csc(Nc2cccc(C(=O)O)c2)n1 | 7% | -19% | · | -2% | -2%[46.1 µM] | 6%[46.1 µM] | -1% | ·
CC(C)(C)Nc1nc(Cl)nc(NC(C)(C)C)n1 | 0% | 0% | 6.4% | 19% | ? | 2% | 0% | 8%
CC(OC(=O)c1ccc2c(c1)C(=O)N(Cc1ccncc1)C2=O)C(=O)Nc1cccc(Cl)c1Cl (stereo not drawn) | -11% | -27% | -17% | 12% | 8% | 3% | 0% | -4%
CCN(CC(=O)Nc1c(F)cccc1F)C(=O)CNC(=O)c1ccc2c(c1)OCO2 | -7% | 7% | · | -2% | · | · | 12% | ·
Cc1csc2nc(O)c(C(=O)NCC3CCCO3)c(=O)n12 (stereo not drawn) | -1% | -13% | · | 7% | 11%[46.1 µM] | 0% | · | ·
Cc1ccc(C)c(-c2nn(CC(=O)Nc3cc(F)ccc3F)c(=O)c3c2CCCC3)c1 | · | -28% | -7.5% | · | -24%[46.1 µM] | -1%[46.1 µM] | · | 17%
OC(CN1CCN(c2ccccc2)CC1)c1ccc2c(c1)CCN2 (stereo not drawn) | -6% | -23% | 2.7% | -1% | ? | 2% | ? | -10%
COc1ccc(S(C)(=O)=O)cc1S(C)(=O)=O | 15% | -17% | 5.3% | 4% | 26% | 18% | 7%[9.22 µM] | 7%
